NS1 inh – qHTS Assay for Inhibitors of Influenza NS1 Protein Function. S. cerevisiae slowed by influenza A NS1, growth recovery by OD600. Potency, µM (highest dose often 46.1 µM), for the others: at the highest dose activity, positive = more growth. hit rate 0.4% among 270,000. AID 2326, 2010; active means well fitted rising curve with a large enough effect; inconclusive means small, poorly fitted or top-dose-only effect; inactive means no such curve, though single readings can be large or run the other way; note: nearly all actives have a fitted effect of over 50% in size
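S. cerevisiae expressing influenza A NS1, grown in glucose, washed, then diluted 1:100 into pH 6.0 -URA galactose medium with 23 nl compound. Growth recovery read as OD600; NS1-free strain serves as control.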
Marburg entry inh – qHTS for inhibitors of binding or entry into cells for Marburg Virus. Marburg virus pseudotyped entry inhibition, cell reporter; control for the full effect not named in the record; about a third of the inactives were read at about 46 µM. Potency, µM (doses to about 37.8 µM), for inactives: top-dose activity change, negative = inhibition, hits mostly inhibitors. hit rate 1.8% among 300,000; active = well fitted inhibition curve with a large enough effect; inconclusive = small, poorly fitted or top-dose-only effect, or effect the other way; inactive = flat fitted curve, though single readings scatter; tested in HEK293 cells; about a fifth of its hits are not listed in these tables; note: % is set by controls: 0 for no effect and ±100 for the full control effect; luciferase read-out
LASV entry inh – qHTS for Inhibitors of binding or entry into cells for Lassa Virus. hit rate 1.2% among 300,000. Potency, µM (series often up to 37.9 µM), for inactives: at the top dose activity change, negative = inhibition, usual class: inhibitors. Lassa virus pseudotype entry inhibition, cell reporter; control for the full effect not named in the record; active means well fitted inhibition curve with a large enough effect; inconclusive means small, poorly fitted or top-dose-only effect, or effect the other way; inactive means flat fitted curve, though single readings scatter; tested in HEK293 cells; note: % is set by controls: 0 for no effect and ±100 for the full control effect; nearly all actives have a fitted effect of over 50% in size; luciferase read-out
2A StopGo – High Throughput Screening for Foot and Mouth Disease Virus Antivirals; human cells with a luciferase reporter of 2A StopGo recoding; control for the full effect not named in the record; Potency, µM (titrated, usually from 57.9 µM), inactives show at the highest dose signal change, negative = less light; hit rate 1.2% among 410,000; AID 1159524, 2015; active = well fitted falling curve with a large enough effect; inconclusive = small, poorly fitted or top-dose-only effect; inactive = no such curve, though single readings can be large or run the other way; tested in HEK293T cells; note: % is set by controls: 0 for no effect and ±100 for the full control effect; nearly all actives have a fitted effect of over 45% in size; luciferase light after 4 h
Cruzain noTriton – qHTS Assay for Promiscuous and Specific Inhibitors of Cruzain (without detergent); Potency, µM, for inactives: max response, negative = inhibition, usual class: inhibitors; Cruzipain (Trypanosoma cruzi), P25779; hit rate 2.3% among 200,000; purified cruzain, Z-FR-AMC fluorescence, no detergent; AID 1476, 2009;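 note: plate controls were enzyme without inhibitor for no effect and buffer without enzyme for full effect; nearly all actives have a fitted effect of over 40% in size; top concentration of the series not given in the record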
Target sequence (P25779 123-467 limits assumed): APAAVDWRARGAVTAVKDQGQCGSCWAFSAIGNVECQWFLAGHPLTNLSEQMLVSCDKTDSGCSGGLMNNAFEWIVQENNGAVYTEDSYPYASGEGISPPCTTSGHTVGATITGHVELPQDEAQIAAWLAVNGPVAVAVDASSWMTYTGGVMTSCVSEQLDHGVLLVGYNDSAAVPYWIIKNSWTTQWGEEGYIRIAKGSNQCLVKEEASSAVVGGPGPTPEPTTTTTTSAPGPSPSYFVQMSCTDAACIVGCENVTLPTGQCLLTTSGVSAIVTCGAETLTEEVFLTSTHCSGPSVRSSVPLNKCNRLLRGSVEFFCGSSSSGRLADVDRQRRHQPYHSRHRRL
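Purified cruzain at 1.5 nM, pre-incubated 15 min with compound at room temperature in 100 mM sodium acetate pH 5.5, 5 mM DTT, 0.00005% Triton X-100. Reaction started with 2 uM Z-FR-AMC; AMC fluorescence increase over 60 s gives rate.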
SARS PLP yeast – qHTS of Yeast-based Assay for SARS-CoV PLP. S. cerevisiae expressing SARS-CoV PLpro, growth rescue; control for the full effect not named in the record. Potency, µM (top dose mostly 32.9 µM), without a hit: at the top dose activity, positive = growth rescue. hit rate 0.19% among 330,000. AID 485353, 2010; active means well fitted rising curve with a large enough effect; inconclusive means small, poorly fitted or top-dose-only effect; inactive means no such curve, though single readings can be large or run the other way; note: 0% is about no effect; nearly all actives have a fitted effect of over 55% in size; growth read by luminescence after 48 h
RE007 growth inh – qHTS Assay for Inhibitors of the HIV-1 protein Vpr. S. pombe RE007 Vpr strain, BacTiter-Glo ATP luminescence, 24 h; control for the full effect not named in the record. Potency, µM (highest dose often 92.2 µM), without a hit: top-dose activity change, negative = less growth. hit rate 0.21% among 360,000. AID 651644, 2012; active = well fitted falling curve with a large enough effect; inconclusive = small, poorly fitted or top-dose-only effect; inactive = no such curve, though single readings can be large or run the other way;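 note: % is set by controls: 0 for no effect and ±100 for the full control effect; nearly all actives have a fitted effect of over 50% in size; the assay follows cell death caused by Vpr and the record does not say whether a fall means rescue or toxicity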
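Fission yeast strain RE007, carrying one chromosomally integrated HIV-1 vpr copy, was seeded at OD 0.01 in PMG+AL medium with 23 nL pinned compound. After 24 h at 30 °C and 99% humidity, viability was read by BacTiter-Glo luminescence.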
Cruzain Triton – qHTS Assay for Promiscuous and Specific Inhibitors of Cruzain (with detergent); AID 1478, 2009; hit rate 0.43% among 200,000; Potency, µM, inactives show max response, negative = inhibition, usual class: inhibitors; purified cruzain, Z-FR-AMC fluorescence, 0.01% Triton; Cruzipain (Trypanosoma cruzi), P25779;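 note: plate controls were neutral wells for no effect and buffer without enzyme for full effect; nearly all actives have a fitted effect of over 40% in size; top concentration of the series not given in the record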
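Sodium acetate buffer (100 mM, pH 5.5) containing 5 mM DTT and 0.01% Triton X-100 hosted 1.5 nM cruzain and test compound for 15 min at room temperature. Cleavage of 2 uM Z-FR-AMC was then tracked by fluorescence.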
The depositor's hits bear a star; ? = inconclusive; nt = no result given; & = joins results of further samples; [ ] = dose if it differs, or a comment. Unless noted, calls come from the whole dose curve; as a rule, active = well fitted curve in the direction sought with a large enough effect; inconclusive = small, poorly fitted or top-dose-only effect, or another doubt; inactive = no such curve, though single readings can be large; an effect the other way counts as inactive or inconclusive. Potency is the fitted concentration of half-maximal effect.

no.	mol	NS1 inh	Marburg entry inh	LASV entry inh	2A StopGo
1	O=C(c1ccco1)N1CCN(Cc2nc3ccc([N+](=O)[O-])cc3c(=O)n2-c2ccccc2F)CC1	4%	-11%	11%	-15%
2	CCOc1cc(C(c2c(C)[nH][nH]c2=O)c2c(C)[nH][nH]c2=O)ccc1O	-4%	?	-2%	-25%
3	FC(F)(F)c1cc(CCN2C(=S)NC[C@@H]2Cc2ccccc2)cc(C(F)(F)F)c1	13%	nt	nt	-24%
4	Cc1ccc(NC(=O)c2cc(S(=O)(=O)N3CCCCC3)c[nH]2)cc1C	5%	nt	nt	7%
5	CN(C)c1ccc(/C=C(/NC(=O)c2ccccc2Cl)C(=O)NCCN2CCOCC2)cc1	-16%	nt	nt	17%
6	Cc1ccc(N(C(=O)C2CCC(=O)N2)C2(C(=O)NC3CCCC3)CCCCC2)cc1 (configuration not stated)	4%	0%	-14%	8%
7	O=C(c1ccc2c(c1)OCO2)N1CCCC(c2ccccc2)C1 (configuration not stated)	-15%	?	-19%	-2%
8	Cn1nc(-c2ccccc2)c(-c2nc(-c3ccccc3Cl)no2)c1Cl	-3%	-24%	2%	-24%
9	Cc1ccccc1Cn1cc(S(=O)(=O)CC(=O)N2CCCCC2)c2ccccc21	-10%	1%	-7%	nt
10	CCCn1nnnc1NC(=O)COc1ccc(Br)cc1	-5%	-1%[46.1 µM]	8%	-5%
11	O=C(COC(=O)c1cnccn1)NCc1ccccc1	13%	-20%	-1%	-8%
12	Cc1cccn2c(=O)c3cc(C(=O)NC4CCCC4)n(C)c3nc12	1%	nt	nt	-12%
13	COC(=O)CNC(=O)c1cn(CCC#N)nc1-c1ccc(F)cc1	nt	-14%[46.1 µM]	10%	-11%
14	O=C(c1cccc(S(=O)(=O)N2CCOCC2)c1)N(Cc1nnc(-c2ccccc2Cl)o1)C1CC1	nt	14%[46.1 µM]	?	-8%
15	COc1ccc(-c2nn(-c3ccccc3)cc2C(=O)N/N=C/c2ccc([N+](=O)[O-])o2)cc1	?	2%[46.1 µM]	?	-20%

no.	Cruzain noTriton	SARS PLP yeast	RE007 growth inh	Cruzain Triton
1	?	-3%	-2%	-5.1%
2	-7%	-22%	-9%	-2.1%
3	nt	0%	14%	nt
4	nt	7%	11%	nt
5	nt	?	28%	nt
6	1%	-6%	12%	1.2%
7	0%	21%	16%	0.9%
8	-5%	-2%	3%	-2.6%
9	-8%	6%	3%	3.3%
10	nt	-1%	15%	nt
11	-1%	3%	0%	1.9%
12	nt	0%	2%	nt
13	nt	1%	2%	nt
14	nt	0%	-20%	nt
15	nt	1%	48%	nt

Complete entries, quoted from the list:
Results for `CCCn1nnnc1NC(=O)COc1ccc(Br)cc1` = NS1 inh: -5%; Marburg entry inh: -1%[46.1 µM]; LASV entry inh: 8%; 2A StopGo: -5%; Cruzain noTriton: nt; SARS PLP yeast: -1%; RE007 growth inh: 15%; Cruzain Triton: nt
Results for `O=C(COC(=O)c1cnccn1)NCc1ccccc1` = NS1 inh: 13%; Marburg entry inh: -20%; LASV entry inh: -1%; 2A StopGo: -8%; Cruzain noTriton: -1%; SARS PLP yeast: 3%; RE007 growth inh: 0%; Cruzain Triton: 1.9%

The listing continues.
no.	mol	NS1 inh	Marburg entry inh	LASV entry inh	2A StopGo
16	Nc1cc(Cl)nnc1Cl	4%	?	13%[46.1 µM]	?
17	CC(C)CC1NC(=S)N(Cc2ccccc2)C1=O (configuration not stated)	18%	?	-2%	11%
18	Cc1cccc(N2CCN(Cc3nc(-c4cccc(Cl)c4)oc3C)CC2)n1	-16%	7.1µM*	-21%	-1%
19	CCN1CCN(C(=S)NC(=O)c2cccc(Br)c2)CC1	nt	-4%	-13%	9%
20	CC1(C)CC(=O)CC(=Nc2ccc(C(=O)O)cc2)C1	4%	1%	9%	-8%
21	CCOC(=O)c1ccc(N2C(=O)Cc3cc(OCC)c(OCC)cc3C2c2ccccc2)cc1 (configuration not stated)	nt	?	?	?
22	COc1ccc(C=NNC(=O)CCCCC(=O)NN=Cc2ccc(OC)cc2)cc1	nt	-20%[46.1 µM]	?	8%
23	CCOc1ccccc1CN1CCc2nc(Nc3ccccc3)ncc2C1	nt	nt	16%[46.1 µM]	-18%
24	CC1CCCCN1C(=O)COC(=O)C1CCN(S(=O)(=O)c2c(Cl)cccc2Cl)CC1 (configuration not stated)	-5%	-4%	16%	-9%
25	O=C(Oc1coc(CSc2ncccn2)cc1=O)c1cccs1	nt	-10%[46.1 µM]	-5%[46.1 µM]	22%
26	CN1CCN(c2ccccc2NC(=O)c2ccc(N3CCOCC3)c([N+](=O)[O-])c2)CC1	3%	?	26%	-1%
27	CCOC(=O)Cc1c(C)nc2c(-c3ccc(Cl)cc3)c(C)[nH]n2c1=O	6%	?	?	nt
28	CCCCNC(=O)c1cccc(C(=O)NCCCC)c1	2%	7%	-18%	-1%
29	Cc1cc2c3c(c1C)C1(C(=O)N3C(C)(C)CC2C)C(C#N)=C(N)OC2=C1C(=O)CC(C)(C)C2 (configuration not stated)	-6%	-5%	0%	9%
30	Cc1ccc(OC(=O)c2cccnc2)cc1	nt	0%[46.1 µM]	11%[46.1 µM]	10%

no.	Cruzain noTriton	SARS PLP yeast	RE007 growth inh	Cruzain Triton
16	nt	1%	-2%	nt
17	6%	-15%	-1%	-5.0%
18	nt	0%	-19%	nt
19	nt	12%	-15%	nt
20	-15%	1%	10%	-8.5%
21	26%	nt	nt	4.6%
22	nt	nt	-9%	nt
23	?	nt	nt	-11%
24	nt	-2%	-1%	nt
25	nt	15%	9%	nt
26	nt	13%	7%	nt
27	6%	-1%	1%	-1.1%
28	-10%	16%	5%	3.2%
29	?	14%	7%	2.7%
30	nt	1%	7%	nt

New compounds follow
no.	mol	NS1 inh	Marburg entry inh	LASV entry inh	2A StopGo
31	CCOc1ccc(S(=O)(=O)N(CC)CC(=O)NCc2cccnc2)cc1	-8%	16%[46.1 µM]	3%	1%
32	CC(C)Oc1cccc(C(=O)NC(=S)Nc2cccc(NC(=O)c3ccccc3Cl)c2)c1	23%	12%	?	-10%
33	Cc1cccc(C)c1NC(=O)CN(C)C(=O)c1cccc(S(=O)(=O)N2CCN(c3ccccc3)CC2)c1	-18%	-7%	-25%	-7%
34	CCOC(=O)CSc1nnc(NC(=O)C2CC(=O)N(c3ccc(F)cc3)C2)s1 (configuration not stated)	13%	-17%	?	7%
35	Cc1ccc(C(=O)Nc2cccc(C(F)(F)F)c2)cc1NC(=O)c1nccn1C	-12%	nt	nt	-18%&-23%
36	COc1ccc(N(CC(=O)NCc2ccco2)S(=O)(=O)c2ccccc2)cc1	0%	-9%[46.1 µM]	nt	16%
37	COc1ccc(-n2nc(C(=O)NCC(=O)NCc3cccc(F)c3)c3ccccc3c2=O)cc1Cl	3%	-15%[46.1 µM]	-11%[46.1 µM]	1%
38	Cc1cc2[nH]c(=O)c(=O)[nH]c2cc1S(=O)(=O)Nc1cccc(Cl)c1	-3%	nt	nt	4%
39	CN1CCN(S(=O)(=O)c2cccc(C(=O)N(Cc3nnc(-c4ccc(Cl)cc4)o3)C3CC3)c2)CC1	nt	?	8%	-14%
40	CCOc1ccc(NC(=O)CN(C2CCCCC2)S(C)(=O)=O)cc1	3%	-30%	-2%	3%
41	CCCn1c(SCC(=O)Nc2cccc(C)n2)nc2c1c(=O)n(C)c(=O)n2C	6%	?	-5%	?
42	COc1ccc(-c2noc(-c3ccc(NCc4ccccc4OC)c([N+](=O)[O-])c3)n2)cc1	nt	16%[46.1 µM]	17%[46.1 µM]	-20%
43	COc1ccc(C(CC(=O)c2ccc(C)cc2)Nc2ccc([N+](=O)[O-])cc2)cc1 (configuration not stated)	15%	?	?	0%
44	CCn1c(=O)c2sccc2n2c(CCCC(=O)N3CCN(c4ccccn4)CC3)nnc12	4%	3%[46.1 µM]	-8%[46.1 µM]	-23%
45	CCOC(=O)c1ccc(NC(=O)c2cnc3c(-c4ccc(F)cc4)c(C)nn3c2C)cc1	nt	nt	-30%[46.1 µM]	-25%
46	CCCCOC(=O)c1cccc(NC(=O)CC)c1	-75%	?	-24%	24%
47	COc1cc(NC(=O)CN2C(=O)NC(C)(CC(C)C)C2=O)cc(OC)c1 (configuration not stated)	6%	-3%	?	5%
48	Nc1ccc(S(=O)(=O)c2cc(O)c3ccccc3c2O)cc1	nt	1%	16%	?

no.	Cruzain noTriton	SARS PLP yeast	RE007 growth inh	Cruzain Triton
31	nt	2%	-11%	nt
32	?	2%	10%	-2.3%
33	nt	1%	-12%	nt
34	nt	-8%	-3%	nt
35	nt	-4%	6%&-9%	nt
36	nt	1%	-6%	nt
37	nt	2%	0%	nt
38	nt	5%	9%	nt
39	nt	-1%	-15%	nt
40	6%	4%	-9%	5.1%
41	nt	0%	-20%	nt
42	-9%	nt	nt	-2.0%
43	?	-3%	-6%	-2.9%
44	nt	3%	1%	nt
45	?	nt	nt	-1.7%
46	1%	-54%	-20%	-2.1%
47	-5%	5%	5%	0.0%
48	nt	nt	-4%	nt

Screening data (PubChem BioAssay)
